Screens deposited in PubChem BioAssay by National Center for Advancing Translational Sciences (NCATS).
VDR inhibitor = blocks the human vitamin D receptor | P11473 | VDR-SRC2-3 peptide fluorescence polarization, 2 h | Potency, µM, for the others: max response, negative = inhibition, usual class: inhibitors | 400,000 compounds, 0.93% hits | AID 504847; active means well fitted inhibition curve with a large enough effect; inconclusive means small, poorly fitted or top-dose-only effect, or another doubt; inactive means no such curve, though single readings can be large or run the other way; further: series mostly up to about 120 µM
Target sequence (P11473 whole entry, looked up): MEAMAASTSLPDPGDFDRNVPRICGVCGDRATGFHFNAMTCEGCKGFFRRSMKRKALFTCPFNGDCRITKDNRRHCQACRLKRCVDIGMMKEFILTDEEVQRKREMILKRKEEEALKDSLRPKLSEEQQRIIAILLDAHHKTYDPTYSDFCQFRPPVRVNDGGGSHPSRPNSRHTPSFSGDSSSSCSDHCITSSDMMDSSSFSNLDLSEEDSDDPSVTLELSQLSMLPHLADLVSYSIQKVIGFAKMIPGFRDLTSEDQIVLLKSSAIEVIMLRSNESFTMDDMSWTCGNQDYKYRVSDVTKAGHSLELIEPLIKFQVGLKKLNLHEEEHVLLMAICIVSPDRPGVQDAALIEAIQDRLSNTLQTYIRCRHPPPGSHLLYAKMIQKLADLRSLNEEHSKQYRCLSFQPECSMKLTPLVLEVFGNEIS
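The screen uses fluorescence polarization to detect compounds that interfere with recruitment of the SRC2-3 coactivator peptide to VDR; plates are read after 2 h at room temperature.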
Numbers without * were called inactive; ? = inconclusive; & = joins results of further samples; [ ] = another dose, or the depositor's remark. On the % scale 0 is the no-effect control and ±100 the full control effect; potency means the concentration at half of the fitted maximal effect.

SMILES | VDR inhibitor
O=C(c1cccs1)N1CCN(Cc2ccncc2)CC1 | -5%
Cn1c(=O)c2c(nc3n2CC(COc2ccccc2)O3)n(C)c1=O (centres undefined) | -13%
COc1ccccc1C(=O)Nc1ccc(N2CCN(Cc3ccccc3)CC2)cc1 | 13%
CC(C)CSc1nnc2c(n1)[nH]c1ccccc12 | 14%
O=C1CC2(CCN(C(=O)c3cccc(Br)c3)CC2)Oc2ccccc21 | -9%
Nc1ccc2nc(SCC(=O)Nc3ccc(N4CCOCC4)c(Cl)c3)sc2c1 | 3%
O=C(Nc1c(O)c2ccccc2[nH]c1=O)c1ccco1 | -1%
CCOc1ccccc1N(CC(=O)Nc1ccc2c(c1)OCO2)S(C)(=O)=O | -6%
O=C(Cc1cccs1)N(c1ccc(F)cc1)C1(C(=O)NC2CCCCC2)CCCC1 | -20%
CC(=O)Nc1ccc(-c2nnc(SCC(=O)Nc3ccc4c(c3)oc3ccccc34)n2C)cc1 | 2%
CCOC(=O)/C(=N/Nc1ccccc1OC)N1CCCc2ccccc21 | -27%
CC1(C)C(=O)Nc2ccccc2N1C(=O)CSc1nc(-c2ccccc2)cs1 | -2%
CCc1cccc(N2C(=O)N(Cc3c(F)cccc3Cl)c3ccccc3S2(=O)=O)c1 | 12%
CN(CC(=O)NCc1cccnc1)S(=O)(=O)c1ccccc1 | -2%
Cc1ccc(C)c(N2CN(CCC3=CCCCC3)CNC2=S)c1 | -3%
Cc1ccc(C(=O)OC2=C(C(=O)c3ccccc3)N(C)S(=O)(=O)c3ccccc32)cc1 | -2%
Cc1ccc2nc(N/N=C/c3ccccc3F)nc(-c3ccccc3)c2c1 | -3%
Cc1c(Cl)c(=O)n2c(=O)c(Cl)c(C)n12 | 21%
COc1ccc(OC)c(NC(=O)CSc2ccc(-c3ccco3)nn2)c1 | ?
N#C/C(=C\Nc1ccc(Cl)cn1)S(=O)(=O)c1ccccc1 | 22%
COc1cccc(C(=O)CC(=O)C(=O)Nc2cccc([N+](=O)[O-])c2C)c1 | -2%
CN(CC(=O)Nc1ccc(OC(F)(F)F)cc1)C(=O)/C=C/c1cc2c(cc1[N+](=O)[O-])OCO2 | 4%
Oc1ccccc1/C=N/n1cnn(Cc2ccccc2Cl)c1=S | ?
Cc1ccc(NC2c3ncccc3C(=O)N2c2ccccc2C)cc1C (centres undefined) | -3%
O=C(O)Cc1ccc(NC2(c3ccccc3)C(=O)c3ccccc3C2=O)cc1 | 4%
CSc1ccccc1NC(=O)c1cc(CC(C)C)on1 | ?
CC(=O)NC(Cc1ccccc1)C(=O)NC1CCN(C(=O)NC2CCCCC2)CC1 (centres undefined) | 5%
CC(C)c1c(O)nc(SCC(=O)N2CCOCC2)[nH]c1=O | 1%
c1ccc(-c2onc(-c3ccco3)c2-c2ccc3c(c2)OCO3)cc1 | -9%
O=C(NCC1CCCO1)c1coc2nc3ccccc3nc12 (centres undefined) | -4%
CCN(CCn1cccn1)C(=O)CCc1nnc(Cc2c[nH]c3ccccc23)o1 | -4%
CCc1noc(C)c1C(=O)NNC(=O)c1cc(OC)cc(OC)c1 | 0%
CCc1cccc(OCC2Cn3c(nc4c3c(=O)[nH]c(=O)n4C)O2)c1 (centres undefined) | -13%
Cc1ccccc1C(=O)N/N=C/c1cccc2ccccc12 | 4%
CC(C)N(CCc1ccncc1)C(=S)Nc1ccc(F)c(Cl)c1 | -8%
COc1ccc(CC(=O)NC2CCN(CC(=O)Nc3ccc4c(c3)OCCO4)CC2)cc1OC | -13%
CCOC(=O)c1cnc2c(C)cccc2c1NCCc1ccc(OC)c(OC)c1 | 10%&18%
COc1ccc(CCNC(=O)COc2ccccc2[N+](=O)[O-])cc1OC | 8%
CC1(C(=O)NC2CCCCCCC2)CCC(=O)N1CCN1CCOCC1 (centres undefined) | -7%
CN(C)c1cc(-c2ccc(Cl)c(Cl)c2)oc(=O)c1Cl | 11%
Cc1cc(C(=O)OCC(=O)Nc2ccc(F)cc2F)c(C)o1 | 8%
O=C(COC(=O)c1ccc(NS(=O)(=O)c2cccs2)cc1)NCc1ccco1 | -14%
CC(C)CNS(=O)(=O)c1ccc(CC(C)C)cc1 | -4%
CCCN(CCC)CCCNC(=O)c1cc2c(=O)n(CC)c3ccccc3c2s1 | -7%
CN(C)S(=O)(=O)c1ccc(NC(=O)C2COc3ccccc3O2)cc1 (centres undefined) | -10%
CCc1cccc(NC(=O)Cn2c(=O)n(-c3ccccc3C)c(=O)c3c2c2cc(C)ccc2n3C)c1 | 7%
CCn1c(CNC(=O)c2ccccc2)nc2ccccc21 | -7%
COc1ccc(CNC(=O)OCc2nccnc2C(=O)Nc2ccc(Br)cn2)cc1 | 13%
NC(=S)Nc1ccc(Cl)c(Cl)c1 | -5%
Nc1nc(SCc2ccccc2Cl)[nH]c(=O)c1-c1ccccc1 | 13%
COc1cc(C(=O)Nc2ccc3nc(SCc4ccc(C)cc4)sc3c2)cc(OC)c1OC | 6%
Cc1cc(Cn2nc(-c3ccccc3)cc2C(=O)NCc2cccs2)on1 | 0%
O=C1C(c2ccc(F)cc2)N(CCc2ccc(Cl)cc2)C(=O)CN1C1CCCCCC1 (centres undefined) | 7%
O=C(Nc1ccccc1)c1nc[nH]c1C(=O)N1CCN(c2ccccc2)CC1 | ?
COC(=O)C(NC(=O)C(NC(=O)C1CCC(C)CC1)C(C)C)C(C)C (centres undefined) | -11%
O=S(=O)(NC1c2cccc3cccc(c23)C1N1CCNCC1)c1ccc(Cl)cc1 (centres undefined) | 15%

Entries shown so far with a Cl atom (11):
SMILES | VDR inhibitor
Nc1ccc2nc(SCC(=O)Nc3ccc(N4CCOCC4)c(Cl)c3)sc2c1 | 3%
CCc1cccc(N2C(=O)N(Cc3c(F)cccc3Cl)c3ccccc3S2(=O)=O)c1 | 12%
Cc1c(Cl)c(=O)n2c(=O)c(Cl)c(C)n12 | 21%
N#C/C(=C\Nc1ccc(Cl)cn1)S(=O)(=O)c1ccccc1 | 22%
Oc1ccccc1/C=N/n1cnn(Cc2ccccc2Cl)c1=S | ?
CC(C)N(CCc1ccncc1)C(=S)Nc1ccc(F)c(Cl)c1 | -8%
CN(C)c1cc(-c2ccc(Cl)c(Cl)c2)oc(=O)c1Cl | 11%
NC(=S)Nc1ccc(Cl)c(Cl)c1 | -5%
Nc1nc(SCc2ccccc2Cl)[nH]c(=O)c1-c1ccccc1 | 13%
O=C1C(c2ccc(F)cc2)N(CCc2ccc(Cl)cc2)C(=O)CN1C1CCCCCC1 (centres undefined) | 7%
O=S(=O)(NC1c2cccc3cccc(c23)C1N1CCNCC1)c1ccc(Cl)cc1 (centres undefined) | 15%

The listing continues.
| SMILES | VDR inhibitor |
| --- | --- |
| COCCNC(=O)COC(=O)/C=C/c1c(C)nn(Cc2ccc(Cl)cc2Cl)c1Cl | 29% |
| CC1CC(C)(C)NC(=S)N1CCCC(=O)NCc1ccccc1 (centres undefined) | -4% |
| CN(C(=O)CSc1nc(C2CCCC2)nc2c1c(=O)n(C)c(=O)n2C)c1ccccc1 | 4% |
| CC(=O)Nc1nc2ccc(C(=O)NCCOC(=O)C3CCCCC3)cc2s1 | 10% |
| COc1ccc(C(=O)Nc2cc(S(=O)(=O)N3CCCC3)ccc2Cl)cc1 | -11% |
| O=C(NCCCc1ccccn1)C1CCC(=O)N(Cc2cccc(F)c2)C1 (centres undefined) | -2% |
| CSc1cccc(N2C(=O)N(Cc3ccc([N+](=O)[O-])cc3)c3ccccc3S2(=O)=O)c1 | 0% |
| Cc1ccc(Cn2cc(/C=N/Nc3ccc([N+](=O)[O-])cn3)c3ccccc32)cc1 | -5% |
| CC(C)(C)C(=O)/C=c1\[nH]c(=O)/c(=C\c2ccccc2F)s1 | 9% |
| COc1cc(NC(=O)C23CC4CC(C2)CC(n2cnc([N+](=O)[O-])n2)(C4)C3)cc(OC)c1 | 2% |
| O=C(CCS(=O)(=O)c1ccc(Br)cc1)Nc1ccccc1Cl | -11% |
| Cc1ccc(S(=O)(=O)N2CCOCC2)cc1NC(=O)CSc1ccccn1 | -4% |
| CCOc1cccc(NC(=O)CSc2nncn2N)c1 | 14% |
| CCOC(=O)c1ccc2c(c1)N(Cc1cccc([N+](=O)[O-])c1)C(=O)c1ccccc1S2 | 8% |
| CC(NC(=O)COc1ccccc1F)C1CC2CCC1C2 (centres undefined) | -14% |
| CN(C)/C=C(/C(=O)c1ccc(Cl)cc1)S(C)(=O)=O | -21% |
| N#C/C(=C\c1ccccc1)C(=O)N1CCN(c2ccccc2F)CC1 | 45µM* |
| c1ccc2c(COn3nnc4ccccc43)cccc2c1 | 6% |
| O=C(COC(=O)c1ccc2ccccc2n1)NC1CCCCC1 | -4% |
| CCOc1ccc(NS(=O)(=O)c2ccc(NC(=O)N3CCCC3)cc2)cc1 | -7% |
| N#Cc1ccc(NC2=NS(=O)(=O)c3ccccc32)cc1 | 5% |
| Cc1cccc(N2CCN(S(C)(=O)=O)CC2)c1C | 2% |
| CCn1c(CC(=O)Nc2ccc(F)cc2)nnc1SCC(=O)N1CCOCC1 | 19% |
| O=[N+]([O-])c1cc(/C=N/n2c(-c3ccncc3)n[nH]c2=S)ccc1Cl | 0% |
| COc1cccc(Nc2ncccc2C(=O)Nc2ccccc2)c1 | 30%[activator] |
| COC(=O)c1ccc(C)c(NC(=O)CN(c2cc(OC)ccc2OC)S(C)(=O)=O)c1 | 3% |
| Cc1cccc(N(CC(O)CN2CCCC2)S(=O)(=O)c2ccccc2)c1 (centres undefined) | 0% |
| CS(=O)(=O)N(CC(O)Cn1c2ccccc2c2ccccc21)c1cccc2ccccc12 (centres undefined) | 13% |
| O=C(CSc1ccc(-c2ccccc2)nn1)NC1CCCC1 | -4% |
| COc1ccc(C)cc1NC(=O)CSc1nnc(-c2ccc(Br)cc2)o1 | -7% |
| Cc1cccc(OCC(=O)NCc2n[nH]c(=O)c3ccccc23)c1 | -3% |
| Nc1nc(SCC(=O)NN(c2ccccc2)c2ccccc2)n[nH]1 | -2% |
| O=C(NC1CCCCC1)c1ccc(CS(=O)Cc2ccc(Cl)cc2)o1 (centres undefined) | 6% |
| CC(C)CC(C(=O)NC1CCCCC1)N(Cc1cccs1)C(=O)c1snc(C(N)=O)c1N (centres undefined) | -10% |
| COc1ccc(-c2oc(/N=C/N3CCOCC3)c(C#N)c2-c2ccc(OC)cc2)cc1 | -8% |
| CN1CC(=O)N2C(c3ccc(Cl)cc3)c3[nH]c4ccccc4c3C[C@H]2C1=O (some centres undefined) | -5% |
| CNC(=O)NC(=O)C(OC(=O)c1cccc(S(=O)(=O)N2CCCCC2)c1)c1ccccc1 (centres undefined) | -15% |
| O=S(=O)(c1ccc2nc(N3CCN(c4cccc(Cl)c4)CC3)ccc2c1)N1CCCCC1 | 10% |
| COc1ccc2c(CNCc3ccc(Cl)cc3)c(C(=O)O)n(Cc3ccccc3C)c2c1 | 4% |
| Nc1cc(C(=O)O)ccc1Nc1ccccc1 | -10% |

2 entries from above, set out differently.
COc1ccc(-c2oc(/N=C/N3CCOCC3)c(C#N)c2-c2ccc(OC)cc2)cc1
  VDR inhibitor = -8%
CN1CC(=O)N2C(c3ccc(Cl)cc3)c3[nH]c4ccccc4c3C[C@H]2C1=O (some centres undefined)
  VDR inhibitor = -5%

The list continues:
| SMILES | VDR inhibitor |
| --- | --- |
| Oc1ccc(-c2nc3ccccn3c2NCc2ccc3c(c2)OCO3)cc1 | 0% |
| COc1ccc(C2CC(c3ccccc3)Oc3cc4c(cc32)OCO4)cc1 (centres undefined) | -9%&-10% |
| C#CC[N+](C)(C)CCN1C(=O)C2C(c3ccccc3)C=CC(c3ccccc3)C2C1=O (centres undefined) | -8% |
| CCc1ccc(-n2nc(C)c3c(C)cc(=O)n(CC(=O)Nc4ccc(C(C)=O)cc4)c32)cc1 | 0% |
| COc1ccc(OCCNC(=S)Nc2cccc3ccccc23)cc1 | 8% |
| CCOC(=O)c1cc2c(=O)n3ccccc3nc2n(CCOC)c1=NC(=O)C(C)(C)C | -7% |
| Cc1ccc(NC(=O)CC2=NC(=O)C(CC(=O)Nc3ccccc3F)S2)cc1 (centres undefined) | -11% |
| CC(C)NC(=O)c1ccc2c(c1)N(Cc1ccccc1)C(=O)C(C)(C)O2 | -10% |
| CCN(CC)c1ccc(NC(=O)c2cc3c(OC)cccc3[nH]2)cc1 | -7% |
| O=C(c1cccc(N2C(=O)C3C4C=CC(C4)C3C2=O)c1)N1CCCCCC1 (centres undefined) | -1% |
| COc1ccc(C(=O)/C=C/Sc2nc3ccccc3o2)cc1 | 18µM* |
| Cc1ccc(NC(=O)CN2C(=O)CCc3cc(S(=O)(=O)N4CCOCC4)ccc32)c(C)c1 | 6% |
| CCCN1C2CCCC1CC(NC(=O)c1cc(OC)cc(OC)c1)C2 (centres undefined) | -14% |
| O=C(OCc1ccc(F)cc1)c1cc(S(=O)(=O)N2CCCCC2)ccc1N1CCOCC1 | -11% |
| CC(Oc1ccc2c(-c3ccccc3)cc(=O)oc2c1)C(=O)NCCN1CCOCC1 (centres undefined) | 16% |
| CCOC(=O)Cc1c(C)nc2c(C#N)c(C)nn2c1C | -1% |
| CCOc1ccc2nc(NC(=O)c3cccnc3)sc2c1 | -7% |
| CCOc1cc(NC(=O)C2CCCO2)c(OCC)cc1NC(C)=O (centres undefined) | -15% |
| COc1ccc(Cc2nc(-c3ccccc3)no2)cc1 | -12% |
| Cc1cccc(N2CC(C(=O)OCC(=O)Nc3sccc3C(N)=O)CC2=O)c1C (centres undefined) | -8% |
| CCc1ccc(NC(=O)CN(c2ccc(OC)cc2)S(=O)(=O)c2c(C)nn(C)c2C)cc1 | 0% |
| O=C(c1ccc(S(=O)(=O)NCC2CCCO2)cc1)N1CCN(c2ccccc2)CC1 (centres undefined) | 4% |
| CCC(=O)N(C)CCc1cc2c(c(OC)c1/C=N/NC(=O)[C@H]1C[C@@H]1c1ccccc1)OCO2 | ? |
| C[C@@H]1CN=C2N(CCNC(=O)CCC3CCCCC3)[C@H](Cc3ccc(O)cc3)CN21 | 1% |

A portion of the library. The share of hits here may be higher or lower than overall.
